# GALR2 ag: activates the human galanin receptor 2; hit rate 0.48% among 140,000; O43603; activation, %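 (tested at 5 µM)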; GALR2-expressing cells, agonist activation read-out;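 active = above mean plus 3 SD of all compounds, about 5% in these data, not always enough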;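 also: 0% = vehicle buffer wells and 100% = reference agonist at full effect; tested in CHO reporter cells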
# Target sequence (O43603 whole entry, looked up): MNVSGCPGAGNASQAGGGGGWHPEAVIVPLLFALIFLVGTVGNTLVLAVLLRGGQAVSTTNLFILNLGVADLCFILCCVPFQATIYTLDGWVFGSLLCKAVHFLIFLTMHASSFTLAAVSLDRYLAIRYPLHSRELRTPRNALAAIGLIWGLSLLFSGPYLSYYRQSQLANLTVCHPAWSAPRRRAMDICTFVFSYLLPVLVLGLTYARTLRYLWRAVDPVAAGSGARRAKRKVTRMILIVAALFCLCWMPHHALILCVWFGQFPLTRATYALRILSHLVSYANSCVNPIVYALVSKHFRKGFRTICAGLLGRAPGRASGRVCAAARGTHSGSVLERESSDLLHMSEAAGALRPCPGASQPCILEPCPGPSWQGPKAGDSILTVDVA
# HSV augment: increases HSV replication in cells | HSV replication augmentation in cells, fold increase | maximum fold increase | hit rate 0.005% among 220,000;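 active = peak rise of 1.5-fold or more in the series; inconclusive = self-fluorescent or not available for retest; tested in PC3 cells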;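 also: first round at 10 µM; read as green reporter fluorescence; hits show the peak of a series up to 25 µM; 1 = signal of infected wells without compound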
# INS promoter inh: TRM-6 insulin promoter activity inhibition; hit rate 0.9% among 130,000; TRM-6 cells (human fetal islet line), insulin promoter-eGFP reporter, imaging; reporter expression induced with tamoxifen; inhibition, % at 2 µM;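 active = inhibition above the mean plus 3 SD, with well images judged a real hit on visual review, cut at about 60% in these data, passing the limit was not always enough; inconclusive = inhibition over the cutoff but images rejected on review; inactive = inhibition not above the cutoff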
# PKD1 inh: blocks activity of human protein kinase D1 | hit rate 0.056% among 200,000 | inhibition, %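 (about 10 µM by stock and volumes)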 | AID 797 | Q15139 | PKD1 kinase fluorescence polarization assay;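 active = inhibition of 50% or more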;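 also: controls were vehicle for no effect and a reference inhibitor for full effect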
# RGS16-Gao HTS: RGS16-Galphao interaction regulator (human). O15492+P09471. bead-based flow cytometry RGS16-Galphao binding, fluorescence; actives lie on both sides. AID 1441. binding response (% of control), % at 10 µM. hit rate 0.38% among 220,000;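 active = below 25% or above 175%, edge rows of some plates excepted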;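 also: Galphao activated by GDP with aluminum fluoride before binding; 100% = wells without compound and 0% = beads without RGS; some results beyond the cut were filed as inactive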
# Target sequence (O15492 whole entry, looked up): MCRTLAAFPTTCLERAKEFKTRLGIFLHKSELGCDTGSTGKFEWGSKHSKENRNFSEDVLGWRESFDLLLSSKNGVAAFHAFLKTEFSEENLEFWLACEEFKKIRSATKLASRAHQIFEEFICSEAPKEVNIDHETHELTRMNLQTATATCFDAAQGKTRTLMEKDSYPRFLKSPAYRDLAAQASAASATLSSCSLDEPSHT
# Target sequence (P09471 whole entry, looked up): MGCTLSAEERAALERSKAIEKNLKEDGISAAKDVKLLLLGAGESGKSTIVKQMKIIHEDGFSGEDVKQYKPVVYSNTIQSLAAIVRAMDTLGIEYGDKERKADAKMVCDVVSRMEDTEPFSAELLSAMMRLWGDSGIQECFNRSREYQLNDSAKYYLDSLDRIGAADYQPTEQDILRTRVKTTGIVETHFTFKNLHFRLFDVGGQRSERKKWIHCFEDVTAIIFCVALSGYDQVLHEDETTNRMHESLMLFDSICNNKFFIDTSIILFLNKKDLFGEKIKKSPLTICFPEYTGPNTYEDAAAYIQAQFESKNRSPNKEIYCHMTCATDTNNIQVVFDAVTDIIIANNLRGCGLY
# INS promoter inh cell count: further read-out of INS promoter inh, marked with its call; normalized cell count, %; measured here: cell count, toxicity; reference of the scale not given here;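 cells exposed to compound for 48 h; stained nuclei by imaging scaled within each plate; lower means fewer cells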
# HSV augment primary fold: second read-out of HSV augment, no call of its own (marks repeat the call); fold increase; compound at 10 µM; measured here: primary screen fold increase 10 uM; tested in PC3 cells;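 GFP signal in the first replicate; 1 = infected wells without compound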
# Numbers without * were called inactive; i = inactive; ? = inconclusive; / = no result given; [ ] = remark or other dose.
SMILES,GALR2 ag,HSV augment,HSV augment primary fold,INS promoter inh,INS promoter inh cell count,PKD1 inh,RGS16-Gao HTS
CC(OC(=O)c1c2c(nc3ccccc13)/C(=C\c1ccc3c(c1)OCO3)CCC2)C(=O)Nc1ccc(S(N)(=O)=O)cc1 (stereo not given),1.9,?,/,-16,101,-11,89
CCOC(=O)C1CCCN(C(=O)CCCn2nc(C)n3c(cc4sccc43)c2=O)C1 (stereo not given),-2.8,i,1,/,/,5,102
CN1CCN(/N=C/c2ccc(OCc3ccccc3)cc2)CC1,/,i,0.82,/,/,/,120
O=C(N/N=C/C=C/c1ccccc1[N+](=O)[O-])c1cc(-c2cccnc2)nc2ccccc12,-0.5,i,0.77,27,127,6,99
COC(=O)Cc1ccc(NC(=S)NN2CCOCC2)cc1,0.9,i,1.2,/,/,0,108
CC(C)c1ccccc1NC(=O)COC(=O)/C=C/c1cccc([N+](=O)[O-])c1,-0.5,i,0.87,/,/,-14,102
Cc1ccc(-n2ncc3c(=O)[nH]c(SCC(=O)N4CCC(C)CC4)nc32)cc1C,-0.5,i,0.8,/,/,2,185*[activator]
Cc1csc2c(N3CCN(C(=O)NC(C)(C)C)CC3)ncnc12,/,i,1,/,/,/,88
CC(C)(CO)CNC(=O)c1ccc(OC2CCN(C(=O)C3CC3)CC2)cc1,/,i,1.1,/,/,-3,100
COc1ccc(NC(=O)Cn2cc(C(=O)c3ccco3)c3ccccc32)cc1,-0.3,i,0.87,8,141,-3,99
C/C(=N\OC(=O)c1ccccc1F)c1nccs1,-3.4,i,0.95,19,132,-4,98
O=C(COC(=O)C1(c2ccccc2F)CCCC1)Nc1ncc(C(F)(F)F)cc1Cl,-0.4,i,1,-7,44,-8,75

# The closing 7 compounds of the section above are carried over, then new ones follow.
SMILES,GALR2 ag,HSV augment,HSV augment primary fold,INS promoter inh,INS promoter inh cell count,PKD1 inh,RGS16-Gao HTS
CC(C)c1ccccc1NC(=O)COC(=O)/C=C/c1cccc([N+](=O)[O-])c1,-0.5,i,0.87,/,/,-14,102
Cc1ccc(-n2ncc3c(=O)[nH]c(SCC(=O)N4CCC(C)CC4)nc32)cc1C,-0.5,i,0.8,/,/,2,185*[activator]
Cc1csc2c(N3CCN(C(=O)NC(C)(C)C)CC3)ncnc12,/,i,1,/,/,/,88
CC(C)(CO)CNC(=O)c1ccc(OC2CCN(C(=O)C3CC3)CC2)cc1,/,i,1.1,/,/,-3,100
COc1ccc(NC(=O)Cn2cc(C(=O)c3ccco3)c3ccccc32)cc1,-0.3,i,0.87,8,141,-3,99
C/C(=N\OC(=O)c1ccccc1F)c1nccs1,-3.4,i,0.95,19,132,-4,98
O=C(COC(=O)C1(c2ccccc2F)CCCC1)Nc1ncc(C(F)(F)F)cc1Cl,-0.4,i,1,-7,44,-8,75
O=C(CSc1nc2[nH]ncc2c(=O)n1-c1ccccc1Br)NCc1ccccc1Cl,/,i,0.94,-17,79,2,110
O=C(O)CC(NC(=O)C(c1ccccc1)c1ccccc1)c1cccc([N+](=O)[O-])c1 (stereo not given),/,i,0.97,/,/,/,100
COc1ccc(NC(=O)C2C3C=CC(C3)C2C(=O)NCc2ccccn2)c(OC)c1 (stereo not given),-0.9,i,0.75,53,169,4,82
CCOc1nc(C)cc(COC)c1C(N)=O,/,i,1,29,67,0,100
O=C(CN1C(=O)NC(c2ccccc2)(c2ccccc2)C1=O)Nc1ccc2[nH]c(=O)[nH]c2c1,/,i,0.89,/,/,/,108
OCc1nc2ccccc2n1/N=C/c1cccs1,/,i,0.86,/,/,/,116
COc1ccc(NC(=O)C(NC(=O)OC(C)(C)C)C(C)OCc2ccccc2)cc1 (stereo not given),-2.0,i,0.92,/,/,-6,101
CCCOc1ccc(CCC(=O)N/N=C/c2ccc([N+](=O)[O-])o2)cc1,/,i,0.91,/,/,/,96
O=C(O)C1C2CCC(C2)C1C(=O)NCCC1=CCCCC1 (stereo not given),0.4,i,0.85,7,113,-10,113
O=C(c1cc2c(s1)-c1ccccc1OC2)N1CCN(c2ccccc2)CC1,-2.1,i,0.91,/,/,-3,100
COc1ccccc1N(CC(O)Cn1c(C)nc2ccccc21)S(=O)(=O)c1ccccc1 (stereo not given),-1.6,i,0.98,8,85,-3,101
CCCN1CCC(=O)N([C@H](CSc2ccc(C)cc2)CC(C)C)CC1,/,i,1.1,/,/,/,74
CCOC(=O)c1sc(NC(=O)CCN2C(=O)c3ccccc3C2=O)c(C(=O)OCC)c1C,-0.1,i,1,27,91,2,69
COc1cccc(-n2ccnc2SCC(=O)Nc2nccs2)c1,-0.8,i,0.92,-55,151,4,100
CCCCOC(=O)n1c(=S)oc2cc(Cl)ccc21,0.4,i,0.81,24,104,-6,115
O=C(Cn1cc[n+](CC(=O)c2ccccc2)c1)c1ccccc1,-3.7,i,0.95,-20,127,-4,104
Cc1cc(NC(=O)C(C)C)ncc1NC(=O)CCc1ccccc1,0.0,i,1,22,131,2,117
CCOc1cc(S(=O)(=O)N2CCCCC2)ccc1F,-1.7,i,1.2,50,107,-5,82
CN1CCN(C(=S)Nc2ccc([N+](=O)[O-])cc2)CC1,-1.4,/,/,-7,130,3,104
CCOC(=O)c1cc(-c2ccc(F)cc2)n(CC(=O)NCc2ccccn2)c1C,/,i,0.93,21,71,-5,100
O=C(CSc1n[nH]c(=O)n1C1CC1)c1ccc2c(c1)OCCO2,/,i,0.95,/,/,/,102
CCCn1c(SCC(=O)Nc2cccc(Cl)c2Cl)n[nH]c1=O,/,i,0.93,-42,72,0,111
O=c1cc(CSc2nnc(-c3ccco3)o2)c2ccccc2[nH]1,-1.7,i,0.98,9,80,-5,103
COc1ccc(S(=O)(=O)N(C)c2ccc(C(=O)NCCC(C)C)cc2)cc1,-1.5,i,1.1,4,94,-11,104

# An excerpt from above in order of heavy-atom count, rising.
SMILES,GALR2 ag,HSV augment,HSV augment primary fold,INS promoter inh,INS promoter inh cell count,PKD1 inh,RGS16-Gao HTS
CCOc1cc(S(=O)(=O)N2CCCCC2)ccc1F,-1.7,i,1.2,50,107,-5,82
O=c1cc(CSc2nnc(-c3ccco3)o2)c2ccccc2[nH]1,-1.7,i,0.98,9,80,-5,103
Cc1cc(NC(=O)C(C)C)ncc1NC(=O)CCc1ccccc1,0.0,i,1,22,131,2,117

# Next section
SMILES,GALR2 ag,HSV augment,HSV augment primary fold,INS promoter inh,INS promoter inh cell count,PKD1 inh,RGS16-Gao HTS
O=C(NC(Cc1c[nH]c2ccccc12)C(=O)O)c1ccco1 (stereo not given),-0.8,i,0.84,7,147,-2,100
COC(=O)c1ccc(NC(=O)NC2CCCCC2)cc1,-1.1,i,0.93,19,111,-6,105
C=CCN1C(=O)C(CC(=O)O)SC1=Nc1cccc([N+](=O)[O-])c1 (stereo not given),/,i,1,/,/,-1,102
COc1ccc(CCN(C)c2ccc(S(=O)(=O)N3CCCC3)cc2[N+](=O)[O-])cc1OC,1.6,i,0.9,/,/,-6,102
COc1cccc(CNC(=O)CCC2CCCN(C(=O)CCC(F)(F)F)C2)c1 (stereo not given),/,i,1,/,/,3,98
CCn1c(=O)cc(SCC(=O)N2CCOCC2)c2ccccc21,-0.9,i,1.1,-83,70,0,95
O=C(CN1C2=NCCCN2c2ccccc21)c1ccc2c(c1)OCO2,-1.6,i,0.78,-40,106,0,105
COC(=O)N/N=C/c1ccccc1Cl,/,i,1.1,/,/,-6,92
COc1cc2c(cc1OC)CN(S(C)(=O)=O)CC2,-2.7,i,1,/,/,3,102
CCN1CCN(C(=O)c2ccccc2N(C)S(=O)(=O)c2ccc(C)cc2)CC1,-0.1,i,1.1,-50,178,2,96
CCC(C)Sc1nnc(-c2c[nH]c3ccccc23)n1CCOC (stereo not given),-0.2,i,1.1,7,122,-2,87
O=C(NCCCN1CCOCC1)c1cccc(S(=O)(=O)Nc2cc(Cl)ccc2Cl)c1,/,i,0.96,/,/,0,106
O=C(NC1(N2CCOCC2)CC1)c1ccc(Cl)cc1,/,i,0.93,/,/,/,99
Nc1nnc(N)c2ccccc12,/,i,0.89,46,114,-2,71
Cc1ccc(C(=O)Cn2cncn2)cc1,/,i,0.93,/,/,/,98
COc1ccc(CCNC(=O)CN2CCN(c3ccccc3Cl)CC2)cc1,-2.6,i,1.1,-35,79,6,103
O=C(Nc1cc2cc([N+](=O)[O-])ccc2oc1=O)c1cccs1,/,i,0.8,67,132,-7,117
CC(=O)c1c(C)[nH]c(C(=O)OCC(=O)Nc2ccc(C)cc2[N+](=O)[O-])c1C,-0.6,i,1.1,/,/,1,103
CCN(CC)C(=O)C1=C(C)NC(=S)NC1c1ccc(C)s1 (stereo not given),/,i,1,15,104,-8,102
Cc1cc(C)c(S(=O)(=O)c2ccccc2C)c(Oc2ccccc2)n1,-0.1,i,0.98,33,100,-6,104
COc1ccc(C(=O)O/N=C(\N)c2ccncc2)cc1OC,-0.3,i,0.95,7,70,6,61
CC(=O)N(C)c1ccc(OCC(O)CN(Cc2ccco2)S(=O)(=O)c2ccc(C)cc2)cc1 (stereo not given),0.1,i,0.98,-100,75,-1,101
CCOC(=O)c1ccc(Oc2nc(N(C)C)nc(N3CCOCC3)n2)cc1,/,i,0.93,/,/,-2,92
Cc1ccc(C(=O)NCC(=O)NCC(=O)OCc2ccc(Oc3ccc([N+](=O)[O-])cc3)cc2)cc1,-2.7,i,1,10,108,1,/
O=C(COC(=O)CCc1nc2ccccc2c(=O)[nH]1)Nc1ccccc1Cl,/,i,0.85,/,/,/,89
CCOC(=O)c1ccc(N2Cc3ccccc3C2=NC(=O)c2ccncc2)cc1,/,i,0.93,/,/,-1,95
COc1ccccc1Nc1nc2ccccc2n2cnnc12,/,i,0.91,/,/,/,100
CC1CCC(C(C)C)C(OC(=O)CSc2nccc(=O)[nH]2)C1 (stereo not given),-3.1,i,1.1,19,72,2,109
O=C(COc1ccccc1Br)N1CCN(c2ccccc2)CC1,-2.7,i,0.94,-13,84,0,171
N#C/C(=C(/O)CN1CCN(c2ccccc2F)CC1)c1nc(-c2ccc(Cl)cc2)cs1,-1.1,i,1,43,77,-3,105
Cc1sc2nc(C(C)C)nc(SCC(=O)N3CCN(C(=O)c4ccco4)CC3)c2c1C,-3.0,i,0.88,62,184,15,100
C/C(=N\NS(=O)(=O)c1ccc(Cl)c([N+](=O)[O-])c1)c1cc2ccccc2o1,-1.9,i,0.95,/,/,-6,104
COc1cc(NC(=O)Cn2c(=O)n(CC3CCCO3)c(=O)c3ccccc32)cc(OC)c1 (stereo not given),/,i,0.98,8,165,-6,98
CN(C)S(=O)(=O)c1ccc(-n2cccc2)cc1,/,i,1,/,/,6,96
CCOCCOC(=O)COC(=O)c1ccccc1NC(=O)c1ccccc1,-0.3,i,0.93,-6,97,-8,105
Cc1ccc(-c2nc(CN3CCCCC3c3cccc(F)c3)c(C)o2)o1 (stereo not given),/,i,1.2,/,/,0,98
CCOC(=O)Cn1c2ccc(F)cc2c2nc(C)sc21,/,i,0.9,31,138,0,103
CC(C)N1CC(O)=C(c2nc3ccccc3[nH]2)C1=N,-1.1,i,0.67,-7,118,3,104
Cc1c(NS(=O)(=O)c2ccc(NCC3CCCO3)c([N+](=O)[O-])c2)c(=O)n(-c2ccccc2)n1C (stereo not given),/,i,0.87,/,/,-2,94
Cc1cc(C[n+]2ccccc2)c2nsnc2c1,-0.6,i,0.83,43,65,-5,97
CC(C)=Cc1oc2ccc([N+](=O)[O-])cc2c1N1CCOCC1,/,i,0.93,58,104,0,99
CS(=O)(=O)N(CC(=O)NC1CCCCC1)Cc1ccc(F)cc1,/,i,1.1,/,/,-7,97
Cc1cc(C)n(CC(=O)N/N=C/c2cccc([N+](=O)[O-])c2)n1,-1.8,i,1,-5,60,5,97
S=C(Nc1cccc(Cl)c1Cl)Nn1cnnc1,-0.1,i,1,/,/,6,93
Cc1ccc(S(=O)(=O)NC(=O)COc2ccccc2)cc1,/,i,1,/,/,-7,95
CC1CCN(C(=O)c2ccc(S(=O)(=O)N(C)C)cc2)C(C)C1 (stereo not given),-2.4,i,0.89,27,88,6,88
O=C1OC(Cc2ccccn2)C(O)=C1C1=NCCCCN1 (stereo not given),-0.4,i,0.89,2,64,9,61
Cc1ccc(Cn2nnc3c(=O)n(CC(=O)NCc4ccc5c(c4)OCO5)cnc32)cc1,-1.6,i,0.81,-38,73,-10,112
CCOc1ccc(C(=O)N/N=C/c2cccc3cccnc23)cc1,-1.4,i,0.88,3,118,-12,75
CC1CCN(S(=O)C23CC4CC(CC(C4)C2)C3)CC1 (stereo not given),/,i,1,-5,74,1,123
O=C(CC1NCCNC1=O)Nc1ccc2c(c1)OCO2 (stereo not given),-1.1,i,0.87,60,82,-2,100
O=C(Nc1ccc(F)cc1)c1ccc(-n2ccnc2)nc1,-1.2,i,0.8,-64,139,-6,104
Cc1ccc(S(=O)(=O)NC2CCCCC2)c2nsnc12,-2.1,i,0.99,50,111,-7,107

# Compound activity (PubChem)
